Vaccinia inh = Vaccinia orthopox stage-specific inhibition. Vaccinia-infected cells, mCherry/Venus stage reporter fluorescence; hits give low values; some inactives read as strong as hits. activity change (mCherry), % (test concentration not listed). 0.01% of 89,000 active. AID 1053133;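 active means mCherry past -33% and 40 or more points under the early reporter, replicates agreeing; inconclusive means past -33% without that gap or agreement; tested in A549 cells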;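 further: scaled between vehicle wells and reference inhibitor wells; 23 nL library stock went into each well; one replicate is shown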
Vaccinia inh Venus = also measured in Vaccinia inh; calls as there; activity change (Venus), %; measured here: Venus reporter, other viral stage;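 negative = less Venus signal; first of two replicates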
Starred values were filed as active, the others as inactive; ? = inconclusive; / = no result given; & = joins results of further samples. A portion of the library; the hit share may differ from the screen's.

SMILES	Vaccinia inh	Vaccinia inh Venus
Cc1ccccc1-c1ccc([C@@H]2[C@H](CO)N3CCCCN(C(=O)NC4CCCC4)C[C@@H]23)cc1	?	/
CCN(C[C@H]1[C@H](c2ccccc2)[C@@H](CO)N1C(=O)C1CC1)C(=O)NC1CCCC1	-2	6
COc1cccc(C#Cc2ccc3c(c2)O[C@H](CN(C)S(=O)(=O)c2ccccc2F)[C@@H](C)CN([C@H](C)CO)S3(=O)=O)c1	0	1
Cc1ccccc1S(=O)(=O)N[C@@H]1CC[C@H](CCn2cc(-c3ccc(F)cc3)nn2)O[C@@H]1CO	-28	-25
CO[C@H]1CN(C)C(=O)c2ccc(NC(=O)c3ccc4c(c3)OCO4)cc2OC[C@H](C)N(CC2CC2)C[C@H]1C	5	0
O=C(NCC1CC1)[C@@H]1N[C@@H]2c3ccc(-c4ccccc4F)c(=O)n3C[C@@H]2[C@H]1CO	8	12
Cc1noc(C)c1NC(=O)Nc1ccc2c(c1)CC(=O)N([C@H](C)CO)C[C@H](C)[C@H](CN(C)Cc1ccc(C(F)(F)F)cc1)O2	5	5
Cc1ccc(S(=O)(=O)Nc2ccc3c(c2)C(=O)N([C@H](C)CO)C[C@H](C)[C@H](CN(C)Cc2ccc(-c4ccccc4)cc2)O3)cc1	-24	-23
C[C@@H]1CN([C@@H](C)CO)C(=O)c2cc(NC(=O)Nc3ccc(F)cc3)ccc2O[C@@H](C)CCCCO[C@@H]1CN(C)C(=O)NC1CCCCC1	39	18
C[C@H](CO)N1C[C@H](C)[C@H](CN(C)C(=O)NC2CCCCC2)Oc2ccc(NS(=O)(=O)c3cccs3)cc2CC1=O	11	7
C[C@@H]1CCCCO[C@H](CN(C)Cc2ccc3c(c2)OCO3)[C@@H](C)CN([C@H](C)CO)C(=O)c2cc(NC(=O)Nc3ccc(C(F)(F)F)cc3)ccc2O1	-21	-11
C[C@H]1CN([C@@H](C)CO)C(=O)c2cccc(NC(=O)NC3CCCCC3)c2O[C@H]1CN(C)Cc1ccc(C(F)(F)F)cc1	-6	-7
O=C(C[C@H]1CC[C@H]2[C@@H](COC[C@H](O)CN2Cc2cccc(C(F)(F)F)c2)O1)NCc1ccc(F)cc1	-1	-3
C[C@@H]1CN([C@H](C)CO)S(=O)(=O)c2ccc(-c3ccncc3)cc2O[C@H]1CN(C)S(=O)(=O)c1ccccc1F	-20	-23
COc1ccc(NC(=O)N[C@H]2CC[C@H](CCn3cc(-c4ccccc4)nn3)O[C@H]2CO)cc1	-4	-2
O=C(NC[C@H]1[C@@H](c2ccccc2)[C@@H](CO)N1Cc1ccccc1)c1ccccn1	7	8
C[C@@H]1CCCCO[C@@H](CN(C)S(C)(=O)=O)[C@@H](C)CN([C@H](C)CO)C(=O)c2cc(NC(=O)C3CCCCC3)ccc2O1	7	-4
O=C(N[C@H]1CC[C@H](CCn2cc(C3CCCCC3)nn2)O[C@@H]1CO)c1cccnc1	-1	1
Cc1noc(C)c1S(=O)(=O)Nc1ccc2c(c1)C(=O)N([C@@H](C)CO)C[C@@H](C)[C@H](CN(C)C(=O)Cc1ccccc1)OCCCC[C@@H](C)O2	1	-12
COc1ccc(NC(=O)Nc2ccc3c(c2)CC(=O)N([C@@H](C)CO)C[C@@H](C)[C@@H](CN(C)C(=O)NC(C)C)O3)cc1	-13	-9
O=C(C[C@H]1C[C@H]2c3cc(NC(=O)Nc4ccccc4F)ccc3O[C@H]2[C@@H](CO)O1)NC1CCCC1	-5	0
COc1ccc(CN(C)C[C@H]2Oc3ccc(NS(=O)(=O)c4ccccc4)cc3CC(=O)N([C@H](C)CO)C[C@H]2C)cc1	-3	-7
C[C@H]1CN([C@@H](C)CO)S(=O)(=O)c2ccc(C3=CCCCC3)cc2O[C@@H]1CN(C)Cc1ccncc1	?	/
C[C@H](CO)N1C[C@H](C)[C@@H](CN(C)S(=O)(=O)c2cn(C)cn2)OCCCC[C@H](C)Oc2ccc(NS(=O)(=O)c3ccc(Cl)cc3)cc2C1=O	19	7
Cc1ccc(S(=O)(=O)N(C)C[C@@H]2Oc3ccc(NC(=O)CCCN(C)C)cc3CC(=O)N([C@@H](C)CO)C[C@H]2C)cc1	25	22

Two of the compounds above, bar-delimited:
structure | Vaccinia inh | Vaccinia inh Venus
CO[C@H]1CN(C)C(=O)c2ccc(NC(=O)c3ccc4c(c3)OCO4)cc2OC[C@H](C)N(CC2CC2)C[C@H]1C | 5 | 0
O=C(NCC1CC1)[C@@H]1N[C@@H]2c3ccc(-c4ccccc4F)c(=O)n3C[C@@H]2[C@H]1CO | 8 | 12

Later entries:
SMILES	Vaccinia inh	Vaccinia inh Venus
COc1ccc(NC(=O)Nc2cccc3c2O[C@H](CN(C)S(=O)(=O)c2ccccc2)[C@@H](C)CN([C@@H](C)CO)C3=O)cc1	-15	-9
CNC[C@@H]1Oc2ncc(-c3ccccc3F)cc2C(=O)N([C@@H](C)CO)C[C@@H]1C	-14	-9
COc1ccc(NC(=O)N(C)C[C@H]2Oc3ccc(NC(=O)C4CC4)cc3C(=O)N([C@@H](C)CO)C[C@@H]2C)cc1	4	2
COc1ccc(S(=O)(=O)N(C)C[C@@H]2Oc3ccc(NS(=O)(=O)c4cccs4)cc3C(=O)N([C@@H](C)CO)C[C@H]2C)cc1	-2	10
C[C@H]1CCCCO[C@H](CN(C)Cc2ccccc2)[C@@H](C)CN([C@@H](C)CO)C(=O)c2cc(NS(=O)(=O)c3ccc(F)cc3)ccc2O1	?	/
C/C=C/c1ccc2c(c1)O[C@H](CN(C)C(=O)c1ccccc1F)[C@@H](C)CN([C@H](C)CO)S2(=O)=O	9	3
Cc1noc(C)c1NC(=O)N(C)C[C@H]1OCCCC[C@H](C)Oc2ccc(NC(=O)NC(C)C)cc2C(=O)N([C@H](C)CO)C[C@@H]1C	6	-1
CCC(=O)N(C)C[C@@H]1Oc2ncc(-c3ccc(F)cc3)cc2C(=O)N([C@H](C)CO)C[C@@H]1C	13	8
CC=Cc1ccc2n(c1=O)C[C@H]1[C@H](CO)[C@@H](C(=O)NCC(F)(F)F)[C@@H]2N1C(=O)C1CCCCC1 (mixture of isomers)	1	1
O=C(NCCCN1CCOCC1)[C@@H]1[C@@H](CO)[C@@H]2Cn3c(cccc3=O)[C@H]1N2C(=O)C1CCCCC1	6	0
C[C@@H]1CN([C@@H](C)CO)C(=O)Cc2cc(NS(C)(=O)=O)ccc2O[C@@H]1CN(C)S(=O)(=O)c1ccc(Cl)cc1	11	8
O=S(=O)(c1ccc(F)cc1)N1[C@@H]2CNC[C@H]1C2c1ccc(-c2cccc(F)c2)cc1 (stereo partly specified)	-2&5	3&-1
C[C@H](NC(=O)C[C@H]1C[C@@H]2c3cc(NC(=O)CC4CC4)ccc3O[C@@H]2[C@H](CO)O1)c1ccccc1	2	0
C[C@H](CO)N1C[C@H](C)[C@H](CN(C)C(=O)c2ccc3c(c2)OCO3)Oc2ncc(C3=CCCC3)cc2C1=O	6	3
CCCC(=O)N1CCC2(CC1)CN(S(=O)(=O)c1ccc(C)cc1)[C@H](CO)c1[nH]c3cc(OC)ccc3c12	?	/
CN(C)CC(=O)N[C@@H]1CC[C@H](CCNC(=O)C2CC2)O[C@@H]1CO	3	-2
Cc1ccc(S(=O)(=O)N2C[C@H](O)COC[C@@H]3O[C@H](CC(=O)N[C@H]4CCN(Cc5ccccc5)C4)CC[C@H]32)cc1	-13	-9
C[C@@H]1CCCCO[C@H](CN(C)C(=O)Cc2ccccc2)[C@@H](C)CN([C@@H](C)CO)C(=O)c2cc(NC(=O)Nc3ccc(F)cc3)ccc2O1	-26	-12
O=C(Cc1ccccc1)N1CC2(C1)[C@H](c1ccccc1)[C@H](CO)N2Cc1cccc(Cl)c1	-30	-15
CCS(=O)(=O)N[C@@H]1CC[C@H](CC(=O)Nc2ccc(-c3ccccc3)cc2)O[C@@H]1CO	7	7
CC(C)NC(=O)N(C)C[C@H]1Oc2ccc(NC(=O)Cc3cn(C)c4ccccc34)cc2C(=O)N([C@H](C)CO)C[C@@H]1C	6	4
CC(C)NC(=O)Nc1cccc2c1O[C@H](CN(C)S(=O)(=O)c1cn(C)cn1)[C@H](C)CN([C@H](C)CO)C2=O	3	-8
O=C(Nc1ccccc1)C1=C[C@@H](C2CCCCC2)C[C@@H](OCc2ccc(CO)cc2)O1	-4	13
Cc1noc(C)c1NC(=O)N(C)C[C@H]1OCCCC[C@@H](C)Oc2ccc(NC(=O)CCC(F)(F)F)cc2C(=O)N([C@@H](C)CO)C[C@@H]1C	23	5
C[C@H](CO)N1C[C@H](C)[C@@H](CN(C)Cc2ccc3c(c2)OCO3)Oc2c(NC(=O)CCCCCC(=O)Nc3ccccc3N)cccc2C1=O	22	14

Reformatted: results already given
Below each SMILES: Vaccinia inh, Vaccinia inh Venus
- COc1cccc(C#Cc2ccc3c(c2)O[C@H](CN(C)S(=O)(=O)c2ccccc2F)[C@@H](C)CN([C@H](C)CO)S3(=O)=O)c1
    0, 1
- Cc1ccccc1S(=O)(=O)N[C@@H]1CC[C@H](CCn2cc(-c3ccc(F)cc3)nn2)O[C@@H]1CO
    -28, -25
- CO[C@H]1CN(C)C(=O)c2ccc(NC(=O)c3ccc4c(c3)OCO4)cc2OC[C@H](C)N(CC2CC2)C[C@H]1C
    5, 0
- O=C(NCC1CC1)[C@@H]1N[C@@H]2c3ccc(-c4ccccc4F)c(=O)n3C[C@@H]2[C@H]1CO
    8, 12
- Cc1noc(C)c1NC(=O)Nc1ccc2c(c1)CC(=O)N([C@H](C)CO)C[C@H](C)[C@H](CN(C)Cc1ccc(C(F)(F)F)cc1)O2
    5, 5
- Cc1ccc(S(=O)(=O)Nc2ccc3c(c2)C(=O)N([C@H](C)CO)C[C@H](C)[C@H](CN(C)Cc2ccc(-c4ccccc4)cc2)O3)cc1
    -24, -23
- C[C@@H]1CN([C@@H](C)CO)C(=O)c2cc(NC(=O)Nc3ccc(F)cc3)ccc2O[C@@H](C)CCCCO[C@@H]1CN(C)C(=O)NC1CCCCC1
    39, 18

Next structures:
SMILES	Vaccinia inh	Vaccinia inh Venus
COc1ccc2c3c([nH]c2c1)[C@@H](CO)N(C(=O)c1cccnc1)CC31CN(C(=O)NC(C)C)C1	10	7
Fc1cccc(-c2ccc(C3[C@@H]4CN(Cc5cccnc5)C[C@H]3N4)cc2)c1 (stereo partly specified)	?	-22
C[C@@H]1CN([C@@H](C)CO)C(=O)c2cccc(NS(=O)(=O)c3ccccc3)c2O[C@H]1CN(C)C	4	-2
C/C=C/c1cnc2c(c1)C(=O)N([C@H](C)CO)C[C@H](C)[C@@H](CN(C)Cc1cncnc1)O2	16	8
COc1cccc(NC(=O)N(C)C[C@@H]2Oc3ncc(/C=C/c4ccccc4)cc3C(=O)N([C@@H](C)CO)C[C@H]2C)c1	?	/
O=C(c1ccccn1)N1CC2(C1)[C@@H](c1ccccc1)[C@H](CO)N2Cc1ccc(Cl)cc1	3	7
C[C@@H]1CCCCO[C@H](CN(C)Cc2ccc(C(F)(F)F)cc2)[C@@H](C)CN([C@@H](C)CO)C(=O)c2cc(NC(=O)CCC(F)(F)F)ccc2O1	?	/
CC(C)CC#Cc1cnc2c(c1)C(=O)N([C@@H](C)CO)C[C@@H](C)[C@H](CN(C)Cc1ccccc1C(=O)O)O2	-12	-16
C[C@@H]1CN([C@H](C)CO)C(=O)Cc2cc(NS(=O)(=O)c3ccccc3)ccc2O[C@H]1CN(C)S(C)(=O)=O	3	7
C[C@@H]1CN([C@@H](C)CO)C(=O)c2cc(NC(=O)CCCN(C)C)ccc2O[C@H]1CN(C)Cc1ccc2c(c1)OCO2	32	22
CC=Cc1ccc2n(c1=O)C[C@@H]1[C@@H](CO)[C@H](C(=O)NCc3ccc(F)cc3)[C@H]2N1CCC (mixture of isomers)	-4	0
CO[C@@H]1CC[C@H]2CCOc3c(C#N)cccc3C(=O)N(C)[C@H](C)C(=O)N(C)C[C@@H]1O2	7	4
Cc1noc(C)c1NC(=O)N(C)C[C@@H]1Oc2c(NS(=O)(=O)c3cccs3)cccc2C(=O)N([C@H](C)CO)C[C@H]1C	-7	-3
O=C(C[C@@H]1C=C[C@@H](NS(=O)(=O)c2ccccc2F)[C@H](CO)O1)NCCCN1CCOCC1	15	7
C[C@@H]1CCCCO[C@@H](CN(C)CC2CC2)[C@@H](C)CN([C@H](C)CO)C(=O)c2cc(NC(=O)CCCN(C)C)ccc2O1	24	2
O=C(Nc1ccccc1)N1CC(=O)N2[C@H](C1)[C@@H](c1ccc(C#CC3CC3)cc1)[C@@H]2CO	?	/
C[C@@H]1CN([C@@H](C)CO)C(=O)c2cc(C#Cc3ccccn3)cnc2O[C@H]1CN(C)C(=O)c1cnccn1	10	20
O=C(Nc1cc(F)ccc1F)N1CCCCN2[C@@H](CO)[C@H](c3ccc(-c4cncnc4)cc3)[C@@H]2C1	10	7
CCCNC(=O)N(C)C[C@@H]1Oc2cc(C#C[C@H](C)O)ccc2S(=O)(=O)N([C@@H](C)CO)C[C@@H]1C	21	3
COc1ccc(C#Cc2cnc3c(c2)C(=O)N([C@@H](C)CO)C[C@H](C)[C@H](CN(C)C)O3)cc1	-6	-8
O=C(N[C@H]1C=C[C@H](CC(=O)N2CCOCC2)O[C@@H]1CO)c1cccc(F)c1	10	4
O=C(C[C@@H]1CC[C@H]2[C@@H](COC[C@@H](O)CN2Cc2cccc(-c3ccncc3)c2)O1)N1CCCCC1	-2	-6
C[C@@H]1CN([C@H](C)CO)C(=O)Cc2cc(NC(=O)Cc3cn(C)c4ccccc34)ccc2O[C@H]1CN(C)C(=O)Nc1ccc(F)cc1	2	4
C/C=C/c1ccc([C@@H]2[C@H](CO)N3C(=O)CN(S(=O)(=O)c4cccc(F)c4)C[C@@H]23)cc1	-1	-4
C[C@H]1CN([C@@H](C)CO)C(=O)c2cccc(NS(=O)(=O)c3ccccc3)c2O[C@@H]1CN(C)Cc1ccc(C(=O)Nc2ccccc2N)cc1	34	23
CN(C)CCCNC(=O)C[C@@H]1CC[C@@H](NS(=O)(=O)c2ccc(F)cc2)[C@H](CO)O1	6	4
O=C(c1cccc(F)c1)N1C[C@@H]2[C@H](c3ccccc31)[C@H](CO)N2C(=O)C1CC1	10	5

Bioassay records as filed in PubChem.
